T cruzi inh – T. cruzi replication inhibition; T. cruzi beta-gal in NIH3T3, luminescence, 90 h; inhibition, % (no concentration beside the values); 1.4% of 300,000 active; AID 1885;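 active = mean inhibition across valid replicates above about 55%, limit read from the data; inconclusive = mean below that limit but half or more replicates reach it; inactive = mean below it, under half of replicates reach it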;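 note: signal also drops with host cell toxicity which is not excluded here; 0% = plate median of DMSO wells and 100% = zero luminescence signal; higher percent means less beta-gal luminescence so fewer parasites; stock transfer was 50 nL into about 50 µL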
Beta2AR agonist – activates human beta-2 adrenergic receptor causing internalization. 0.43% of 340,000 active. Am2.2-beta2AR cells, FAP receptor internalization, flow cytometry; reference of the scale not given here. response, % (test concentration not listed). P07550;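 active = response above a set limit, near 3 SD of response in nonfluorescent compounds, cut at about 42% in these data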;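 note: stock transfer was 100 nL into about 11 µL; a reference agonist was the positive control; negative values mostly stem from fluorescent compounds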
Target sequence (P07550 whole entry, looked up): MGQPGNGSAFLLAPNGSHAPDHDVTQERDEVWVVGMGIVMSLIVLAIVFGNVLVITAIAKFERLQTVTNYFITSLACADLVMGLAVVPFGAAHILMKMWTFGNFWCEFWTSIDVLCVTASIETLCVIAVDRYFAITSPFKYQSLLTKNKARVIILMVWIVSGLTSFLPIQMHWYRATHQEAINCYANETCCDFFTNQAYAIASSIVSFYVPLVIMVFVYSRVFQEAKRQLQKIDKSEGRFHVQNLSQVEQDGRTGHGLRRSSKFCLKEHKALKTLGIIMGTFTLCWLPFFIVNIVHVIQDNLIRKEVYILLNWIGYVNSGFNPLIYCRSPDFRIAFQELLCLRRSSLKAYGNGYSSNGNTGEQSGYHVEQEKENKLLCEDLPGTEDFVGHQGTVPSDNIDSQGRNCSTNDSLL
UCH37 inh – inhibitors of human deubiquitinating enzyme UCH37; inhibition, % (test concentration not listed); AID 588478; 0.33% of 330,000 active; purified proteasome/UCH37, Ub-AMC cleavage fluorescence; Q9Y5K5;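 active = mean of two replicates above 20%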;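 note: 0% = compound-free wells with enzyme and 100% = wells lacking proteasome; stock transfer was 100 nL into about 20 µL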
Target sequence (Q9Y5K5 whole entry, looked up): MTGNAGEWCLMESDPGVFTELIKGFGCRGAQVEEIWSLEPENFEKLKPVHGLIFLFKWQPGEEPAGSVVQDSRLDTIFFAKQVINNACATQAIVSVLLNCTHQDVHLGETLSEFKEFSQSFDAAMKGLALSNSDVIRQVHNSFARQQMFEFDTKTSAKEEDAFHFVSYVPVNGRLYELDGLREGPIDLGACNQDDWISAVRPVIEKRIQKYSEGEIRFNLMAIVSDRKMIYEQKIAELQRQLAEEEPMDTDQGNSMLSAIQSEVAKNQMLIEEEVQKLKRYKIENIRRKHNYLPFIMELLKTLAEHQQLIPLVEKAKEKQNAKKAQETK
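assay system = human UCH37 enzyme supplied as purified proteasome complex | amount = proteasome at 0.15 nM in the dispensed enzyme solution | schedule = 30 min compound-proteasome preincubation then 25 min substrate reaction, room temperature | measured by = fluorescence, ex 355 nm, em 460 nm | benchmarks = no-proteasome wells (full inhibition) and compound-free wells (no inhibition)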
A1 inh – inhibitors of the anti-apoptotic protein A1, read as caspase activation; caspase activation, % (test concentration not listed); MEF A1-2A-BIM cells, Caspase-Glo 3/7 luminescence, 3 h; percent of clofoctol response, vehicle zero; 0.066% of 330,000 active; AID 2462;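 active = over half of replicate activation scores above 10%, or exactly half above 10 with the replicate mean above 10; inconclusive = replicate mean below 10 yet half the replicates above 10; inactive = over half of replicates below 10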;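 note: wells of about 30 µL received 50 nL stock; many hits fall short of the cut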
LANA-H2B inh – blocks KSHV LANA binding to histone H2A/H2B; Q9QR71; cell-free LANA-H2A/H2B peptide, fluorescence polarization; inhibition, % (no concentration beside the values); 0.6% of 320,000 active; AID 2629; in the data active = inhibition mostly above about 10%, no sharp cut-off; inactive = mostly below about 6.7%;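 note: stock transfer was 7.5 nL into about 10 µL; 0% = median of vehicle wells and 100% = median of positive control wells; one replicate is shown; the record names a cut of 25% in any replicate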
RanGTP-Imp inh – disruptors of Ran-importin-beta complex formation – biochemical, FRET, CFP-Ran, YFP-importin-beta, homogeneous, primary screen; 1.1% of 300,000 active; cell-free CFP-Ran/YFP-importin-beta FRET ratio; inhibition, % (concentration not given with the values);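 active = most replicates above 15%; inconclusive = exactly half above 15%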;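 note: 0% = DMSO wells and 100% = Ran loaded with GDP instead of GTP; wells of about 40 µL received 100 nL stock; the first replicate is given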
Calb FLC – affects C. albicans growth with fluconazole; 0.57% of 300,000 active; growth inhibition, % (no concentration beside the values); C. albicans CaCi-2 (fluconazole-resistant clinical isolate) + fluconazole, Alamar Blue growth, 48 h; AID 1979;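 active = most replicates above 75%; inconclusive = exactly half above 75%; inactive = most below 75%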;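 note: all wells also contain fluconazole at 8 µg/ml as a sub-toxic cotreatment; 0% = median of DMSO wells and 100% = median of geldanamycin control wells; wells of about 8 µL received 7.5 nL stock; the first replicate is given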
Beta apoptosis – blocks beta cell apoptosis; INS-1E cytokine-induced death, ATP luminescence, 48 h; percent of positive-control rescue, neutral wells zero; protection from apoptosis, % (concentration not given with the values); 0.8% of 300,000 active; AID 435005;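 active = all replicates at 75% or more, or half of them and the mean; inconclusive = half reach 75% but not the mean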;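 note: 0% = cytokine-treated negative control wells and 100% = positive control rescue; higher means more ATP so stronger rescue from cytokine killing; wells of about 40 µL received 100 nL stock; the first replicate is given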
Numbers without * were called inactive; ? = inconclusive; nt = no result given.

SMILES | T cruzi inh | Beta2AR agonist | UCH37 inh | A1 inh | LANA-H2B inh | RanGTP-Imp inh | Calb FLC | Beta apoptosis
CC(Oc1cccc(Br)c1)C(=O)N1CCCN(C)CC1 (stereo not given) | 9 | 6 | 1.1 | 0.8 | -0.4 | 2.9 | -7 | -3
CCN(CC(=O)NCc1ccc(Cl)cc1)C(=O)COc1ccc(C)cc1C | 1 | 0 | 4.5 | 0.6 | 5.3 | -1.3 | 2 | 5
O=S(=O)(Nc1ccc(N2CCOCC2)cc1)c1ccc(F)cc1F | -3 | 1 | 4.5 | 0.2 | 10 | 0.2 | 21 | -4
CNc1c(NC(=O)c2ccc3c(c2)OCO3)c(=O)oc2ccccc12 | -17 | 4 | 2.1 | 0.1 | -4.5 | 5.6 | 11 | -1
COc1ccc2ccccc2c1/C=N/NC(=O)c1cc(C)[nH]n1 | -14 | -3 | nt | 2.1 | 3.8 | -5.6 | 0 | -2
Cc1ccc(-c2c3c(=O)n(C)c(=O)n(C)c3cn2-c2ccccc2O)cc1 | -4 | -9 | -7.5 | -0.7 | 1.9 | 7.5 | 0 | 5
CNC(=S)/N=C/NOCc1ccc(Cl)cc1Cl | 74* | -2 | nt | -0.3 | -2.8 | 1.6 | 93* | nt
O=C(CN1CCCC1)Nc1ccc(S(=O)(=O)N2CCCCC2)cc1 | -2 | -1 | nt | 0.3 | 35* | -5.0 | -1 | 0
O=C(CC1SCCNC1=O)Nc1ccc(F)c(Cl)c1 (stereo not given) | -5 | 2 | -1.5 | -0.8 | 2.7 | 3.8 | -4 | 3
CN1CC(=O)Nc2ccc(F)cc2C1=O | -1 | 8 | 2.3 | 1.2 | 2.3 | -3.8 | -16 | -2
O=S(=O)(NC1C2CC3CC(C2)CC1C3)c1ccccc1 (stereo not given) | nt | 1 | nt | 0.2 | 3.3 | nt | nt | 0
O=C(CCSc1ccc(F)cc1)Nc1ccc(-n2cnnn2)cc1 | -1 | 15 | 2.9 | 0.5 | 1.1 | 8.5 | 4 | 2
Cc1nn2c(=O)cc(COC(=O)c3ccc(NC(=O)C(C)(C)C)cc3)nc2s1 | -28 | 2 | 2.3 | -0.1 | 0.6 | 0.3 | -3 | 0
Cc1c(NC(=O)COC(=O)Cc2ccc(F)cc2)c(=O)n(-c2ccccc2)n1C | -12 | -2 | -1.2 | 0.4 | -4.7 | ? | -1 | -8
NC(=O)NC(=O)COC(=O)CN1C(=O)C2CCCCC2C1=O (stereo not given) | -11 | 0 | 1.6 | -0.1 | nt | 0.3 | -2 | -9
O=C(CCc1ccccc1)C(=O)N1CCCC(C(=O)c2cccc(Cl)c2)C1 (stereo not given) | -13 | -1 | 0.0 | -0.3 | 2.6 | 0.6 | 13 | -4
CCc1ccccc1NC(=O)CCNS(=O)(=O)c1ccc2c(c1)CCC(=O)N2 | -3 | -4 | 2.0 | -0.3 | -0.4 | 1.1 | -7 | -4
CC1=NNC(=O)C1CC(=O)N/N=C/c1ccncc1 (stereo not given) | 1 | 2 | nt | 0.0 | 1.3 | 0.3 | -3 | nt
CCC(CC)C(=O)OCC(=O)Nc1ccc(S(=O)(=O)N2CCOCC2)cc1OC | 6 | 0 | 3.3 | 0.3 | 0.1 | 0.4 | 12 | 3
CCCOc1ccc(CN(C)c2ncnc(N)n2)cc1 | 10 | -13 | 1.2 | 1.3 | 2.7 | 8.4 | 3 | nt
Cc1ccc(NCN2C(=O)C3C4C=CC(C4)C3C2=O)cc1 (stereo not given) | -2 | 4 | -0.9 | 0.1 | -1.6 | ? | 0 | -3
CC(C(=O)Nc1ccccc1)N1CCN(c2ccccn2)CC1 (stereo not given) | -18 | 3 | 6.3 | -1.0 | 3.6 | -3.9 | -10 | 5
CCOc1ccc(CCNC(=O)CCc2nc3ccccc3[nH]2)cc1OCC | 5 | -4 | 1.0 | 0.3 | 1.0 | -1.5 | -3 | 0
CCC1CN(C(=O)N2CCC(C(=O)NCCc3ccc(OC)cc3OC)CC2)c2ccccc2O1 (stereo not given) | 24 | 1 | 0.8 | -0.2 | -4.3 | -1.0 | 9 | 4
Cc1ccc(-n2ncc3c(=O)[nH]c(SCC(=O)N4CCOCC4)nc32)cc1 | 44 | 4 | 2.9 | 0.7 | 1.7 | ? | -1 | 6
COc1ccc(/C=C/C(=O)Nc2cc(C)nn2-c2nc3ccccc3[nH]2)cc1 | 55* | 10 | -14 | -1.2 | 4.1 | -4.5 | 2 | 67
CC(=O)c1nn(-c2ccc(Br)cc2)cc1C(=O)c1ccccc1 | 9 | 14 | 2.9 | 0.4 | -2.6 | -2.6 | 1 | -3
CCCCC[C@@H]1C=C(C(=O)O)[C@H](c2ccc(F)cc2)N1S(=O)(=O)c1ccc(C)cc1 | nt | 3 | 0.4 | 0.1 | -2.0 | nt | nt | -12
CCN1C(=NCCc2cccs2)N[C@@H](c2cccs2)C(C(=O)OC)=C1C | 11 | 9 | 0.1 | 0.3 | 0.3 | 31* | -19 | -4
O=C(Cn1cncn1)N/N=C/c1c2ccccc2cc2ccccc12 | 20 | 11 | nt | 0.4 | 0.5 | -57 | 2 | 9
CC1(C)C([N+](=O)[O-])C(c2ccc(O)cc2)NC(c2ccc(O)cc2)C1[N+](=O)[O-] (stereo not given) | 8 | 13 | 1.0 | -0.5 | 2.1 | 1.5 | 6 | -5
COC(=O)/C=C1\OC(c2ccccc2)=CC1=O | -18 | nt | nt | 1.0 | 1.6 | -4.4 | 19 | -12
O=C(Nc1ccccc1)Nc1ccccc1-n1ccnc1 | 61* | -5 | 4.1 | -1.0 | -2.3 | 12 | 23 | 5
Cc1ccnc(NC(=O)CNC(=O)c2ccco2)c1 | -8 | 22 | 1.2 | 0.3 | -0.7 | 0.6 | -1 | -8
O=C(Nc1nnc(S(=O)(=O)N2CCOCC2)s1)c1ccc(F)cc1 | 7 | -1 | 5.6 | 0.1 | 4.1 | -3.6 | -1 | -4
COc1ccccc1N1CCN(C(=O)CN(c2ccc(C)c(C)c2)S(C)(=O)=O)CC1 | 0 | -3 | 2.9 | -0.6 | 3.6 | -2.7 | -5 | -3
O=C(CN1C(=O)NC2(CCCC2)C1=O)Nc1ccc(S(=O)(=O)N2CCOCC2)cc1 | 4 | -2 | nt | 0.8 | -10.0 | 0.7 | 1 | -12
CC1CCCCN1S(=O)(=O)c1ccc(NC(=O)c2cccs2)cc1 (stereo not given) | 6 | -7 | 4.9 | -0.7 | -6.1 | ? | -3 | 8
CCCCNC(=O)CCc1c(C)nc2c(c(C)nn2-c2ccccc2)c1C | 55* | 5 | -19 | 0.3 | 4.8 | 2.5 | -1 | 0
COc1ccc(C(C)=O)cc1CSC(=N)N | 6 | 4 | 1.4 | -0.3 | 2.5 | -5.2 | -3 | -15
O=C(N/N=C/c1c(O)n(Cc2ccccc2)c(=O)c2ccccc12)c1cccnc1 | 5 | -6 | -2.4 | 0.0 | -0.6 | -0.3 | -3 | 3
O=C(Nc1ccc(Br)c(Br)c1)C1CCCO1 (stereo not given) | -11 | -8 | 1.8 | -0.3 | -1.7 | 3.9 | 8 | 3
NC(N)=N/N=C/c1ccc(OCc2ccc(Cl)cc2)cc1 | 61* | 58* | nt | -0.1 | -15 | 1.2 | 111* | nt
Cc1cccc(OCc2nnc(SC(C)C(=O)Nc3ccc(N4CCOCC4)cc3)o2)c1 (stereo not given) | nt | 8 | 0.3 | -0.4 | 3.9 | nt | nt | -7
Cc1ccc(OCCOCCNC(C)(C)C)c([N+](=O)[O-])c1 | -4 | -4 | 1.5 | 1.0 | -3.7 | 5.0 | -3 | -5
COc1cccc(-c2nc(-c3ccc(NC(=O)c4cccs4)cc3)no2)c1 | 24 | -7 | -8.0 | -2.8 | 0.6 | 2.4 | 1 | 8
Cn1c(=O)c2c(=O)cc(NNC(=O)C(C)(C)C)[nH]c2n(C)c1=O | -10 | -10 | -1.1 | -0.4 | -3.6 | 3.0 | -3 | -1
Cc1ccc(N(CCC(=O)O)S(=O)(=O)c2cccc(C(F)(F)F)c2)cc1 | -18 | -2 | 2.1 | 0.0 | 0.0 | 7.6 | 4 | -6
C=CCn1c(N)cc(=O)nc1SC(C)C(=O)Nc1cccc2ccccc12 (stereo not given) | nt | -1 | -1.5 | -0.6 | 7.1 | nt | nt | -1
O=C(CCc1nnc(COc2ccccc2)o1)NC1(c2ccccc2)CC1 | -3 | -2 | 1.5 | -0.7 | -7.2 | -2.1 | 0 | -2
O=C(c1cccs1)N1CCN(Cc2cn[nH]c2-c2ccc(F)cc2F)CC1 | -1 | -2 | 1.1 | nt | nt | 3.0 | 1 | nt
CCn1c(=O)c2cc(C(=O)NCCN3CCOCC3)sc2c2ccccc21 | 1 | 3 | -165 | ? | 0.3 | 0.9 | -7 | -4
CCOC(=O)C(Cc1ccc(N)cc1)N1C(=O)c2ccccc2C1=O (stereo not given) | 6 | 10 | 4.5 | 4.2 | -5.8 | -1.7 | 8 | 7
CNc1nc(-c2c[nH]c3ccccc23)cs1 | -10 | 6 | 1.0 | -1.3 | 2.4 | 1.3 | 5 | 9
CN(Cc1ccccc1)C(=O)Nc1ccc(Cl)cc1 | 1 | -8 | 3.1 | 0.1 | 0.8 | 0.1 | -3 | 5
COc1ccc(N(CC(=O)NCc2ccc(F)cc2)C(=O)Cn2nnc(-c3ccc(C)o3)n2)cc1OC | 3 | -2 | 0.5 | 0.1 | 0.3 | -0.8 | 3 | 0
c1cc(-c2cn(C[C@H]3CC[C@@H]([C@@H]4CC[C@H](Cn5cc(-c6ccsc6)nn5)O4)O3)nn2)cs1 | 15 | -6 | 2.1 | -0.9 | 2.4 | 1.5 | -2 | 1
COc1ccccc1CC(=O)Nc1ccc(S(=O)(=O)N2CCCCC2)cc1 | -2 | 8 | 2.6 | 1.2 | 2.1 | 0.8 | -8 | 1
CCOc1ncccc1C(=O)Nc1nc(C(C)(C)C)cs1 | 2 | 15 | -7.0 | -0.8 | -4.2 | 4.1 | -7 | 8
COc1ccccc1NS(=O)(=O)c1ccc2oc(SCc3ccc(C#N)cc3)nc2c1 | -20 | 2 | 1.6 | -0.6 | 3.7 | 2.5 | -6 | 40
(cont.)
SMILES | T cruzi inh | Beta2AR agonist | UCH37 inh | A1 inh | LANA-H2B inh | RanGTP-Imp inh | Calb FLC | Beta apoptosis
N#C/C(=C\c1ccco1)c1nc2ccccc2s1 | -8 | -18 | 6.6 | -9.6 | -1.7 | 6.7 | 3 | 3
COc1cc(Cl)ccc1OCc1cc(C(=O)NC2CCc3ccccc32)no1 (stereo not given) | 8 | -2 | 2.7 | 1.0 | 29* | 0.9 | -6 | 6
Cc1ccc(/C=C2/SC(=S)N(CCC(=O)NCCCN3CCOCC3)C2=O)cc1 | 22 | -11 | nt | 0.0 | -9.5 | 1.8 | -5 | nt
CN1C(=O)c2ccc(C(=O)NC3CCCCC3)cc2C1=O | 8 | 1 | 4.5 | 0.5 | 0.6 | -1.1 | -6 | -9
Cc1cc(NC(=O)CSCC(=O)OCC(=O)c2cccc(Br)c2)no1 | nt | -2 | 2.7 | -1.3 | -9.6 | nt | nt | -1

Compound activity (PubChem BioAssay)
